WNV protease inh – blocks West Nile virus NS2B-NS3 protease activity; P06935; WNV NS2B-NS3 protease, fluorogenic substrate Ex360/Em465; active compounds read low; z-score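 (tested at a level between 10 and 100 µM)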; 65,000 compounds, 0.18% hits;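 active = z-score at -3 or under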;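 also: score is relative to mean and spread of the compound wells of a plate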
Target sequence (P06935 1371-1501 limits assumed): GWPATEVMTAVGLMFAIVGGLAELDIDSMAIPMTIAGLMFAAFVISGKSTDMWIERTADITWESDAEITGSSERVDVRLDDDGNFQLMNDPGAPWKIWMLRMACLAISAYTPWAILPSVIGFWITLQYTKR
Target sequence (P06935 1502-1679 limits assumed): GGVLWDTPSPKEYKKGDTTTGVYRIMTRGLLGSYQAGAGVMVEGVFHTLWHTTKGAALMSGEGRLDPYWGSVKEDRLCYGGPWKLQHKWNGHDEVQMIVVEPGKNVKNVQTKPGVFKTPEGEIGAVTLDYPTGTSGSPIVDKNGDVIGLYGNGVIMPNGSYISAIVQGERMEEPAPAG
Hsc70 ATP site – Hsc70 inhibitors, probe displacement, primary screen, biochemical, fluorescence polarization (AID 568). Hsc70 fluorescence polarization, probe displacement; higher % means a stronger effect; strong numbers were not always called active. displacement, % at 20 µM; hits with a dose series show IC50 in µM. 83,000 tested, under 10 active;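 active = displacement above 50% without optical interference and an IC50 on retest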;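 also: ATPase domain with a fluorescein-tagged ATP probe; 0% = vehicle and 100% = excess ADP; read after one hour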
MT1-MMP reporter – MT1-MMP gene expression reporter suppression – cell-based, luciferase reporter, luminescence (AID 618) | MT1-MMP promoter luciferase reporter cells, luminescence | calls from a first round at 10 µM; hits with a dose series show EC50 in µM | 87,000 compounds, 0.62% hits;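 active = over half of the reporter light lost at 10 µM or EC50 under 50 µM; inactive = the rest and hits that failed the dose series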;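 also: actives suppress MT1-MMP promoter-driven transcription so potencies describe inhibitors; HT1080 fibrosarcoma cells; overnight exposure; toxic or luciferase-blocking compounds were not removed from the actives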
The depositor's hits bear a star; i = inactive; / = not tested or not shown.

canonical_smiles	WNV protease inh	Hsc70 ATP site	MT1-MMP reporter
COc1ccc(OC)c(S(=O)(=O)N2Cc3ccccc3CC2C(=O)Nc2nccs2)c1 (stereo not given)	0.8	2.1%	i
COc1cccc(C(C#N)N2CCOCC2)c1 (stereo not given)	/	3.1%	i
O=C(COC(=O)CCNS(=O)(=O)c1ccc(Cl)cc1)NCc1ccco1	-1.27	4.7%	i
CCN1CCCC1CNC(=O)CCc1nc(-c2ccc(C)cc2)no1 (stereo not given)	-0.35	1.6%	i
COc1ccc(NC(=O)CSc2nc(O)cc(=O)n2-c2ccccc2OC)cc1	-0.47	-6.1%	i
O=C(CCc1ccccc1)Nc1ccc(NC(=O)c2ccco2)cc1	-0.07	-0.4%	i
O=C(O)COc1ccc(NC(=O)c2ccco2)cc1	/	-3.8%	i
Cc1ccccc1N1C(=O)CC(N(O)c2ccccc2)C1=O (stereo not given)	0.4	-8.7%	i
COc1cc(OC)cc(C(=O)N2CCN(C(=O)c3ccc(OC)c(OC)c3)CC2)c1	-0.18	-3.4%	i
O=C(CN1CCN(CCC(=O)Nc2ccccc2F)CC1)Nc1ccc(F)cc1	-0.11	2.4%	i
O=C(c1nc2nc(-c3ccc(Cl)cc3)cc(C(F)(F)F)n2n1)N1CCOCC1	0.94	-2.0%	i
CC(/C=N/NC(=O)c1cccnc1)=C\c1ccco1	/	-2.4%	i
C=C(C)c1cccc(C(C)(C)NC(=O)N2CCN(CC)CC2)c1	0.92	8.4%	i
COc1ccc(NC(=O)CN2CCN(CC(=O)Nc3ccc(OC)c(OC)c3)CC2)cc1	0.11	-1.0%	i
O=C(c1cc(C2CC2)nc2ccccc12)N1N=C(C(F)F)CC1(O)C(F)F (stereo not given)	/	2.4%	i
CCn1c(COc2ccccc2)nnc1SCC(=O)C(C)(C)C	0.53	-1.2%	i
Fc1ccc(-c2nnc(CSc3nnc(-c4ccc5c(c4)OCO5)o3)o2)cc1	-0.86	3.2%	i
CCCc1[nH]nc2c1C(c1ccc(OCCN3CCOCC3)c(OCC)c1)C(C#N)=C(N)O2 (stereo not given)	-0.00799	4.1%	i
O=C(O)C1CC(=O)N(c2ccc(OCc3ccccc3Cl)cc2)C1 (stereo not given)	5.03	3.9%	i
CCc1cccc(NC(=O)CN2C(=O)NC3(CCCCCCC3)C2=O)c1	-0.13	-5.6%	i
Cc1cccn2c(=O)c3cc(C(=O)NCc4ccco4)c(=N)n(CCOCCO)c3nc12	0.25	9.4%	i
C=CCO/N=C(\C)c1c(O)c(C)c(-c2ccccc2)n(-c2ccccc2)c1=O	/	0.7%	i
Cc1ccc2c(c1)NC(=O)C(N1CCOCC1)(C(F)(F)F)O2 (stereo not given)	2.12	-3.4%	i
COc1ccc(CCNC(=O)CCSc2nc(-c3ccco3)cc(C(F)(F)F)n2)cc1OC	-0.29	-0.6%	i
COc1ccc(C)cc1NC(=O)c1ccoc1C	0.86	-2.9%	i
O=C(CN1C2=NCCN2c2ccccc21)c1ccc2c(c1)OCO2	-1.24	1.5%	i
O=C(c1cc2nc(-c3ccc(F)cc3)cc(C(F)(F)F)n2n1)N1CCCC1	-0.42	0.5%	i
CCOc1ccc(N=C(NC#N)SC)cc1	-0.56	1.8%	i
CC12CN3CC(C)(CN(C1)C3c1ccc(Cl)cc1Cl)C2=O (stereo not given)	1.77	4.1%	i
C=CCn1c(SCc2cccc3ccccc23)nnc1-c1cccnc1	/	15.0%	i
COc1ccc(OC)c(C2=NOC(C(=O)NCc3ccccn3)C2)c1 (stereo not given)	-0.41	0.8%	i
O=C(CSc1nnc2ccccn12)NCc1cccs1	-1.39	-2.3%	i
CS(=O)(=O)N(CC(O)CON=C1c2ccccc2-c2ccccc21)c1ccc(F)cc1 (stereo not given)	/	1.6%	i
CCOC(=O)c1c(NC(=O)COC)sc(C)c1C	/	-0.5%	i
O=c1c2[nH]c3ccccc3c2ncn1CCN1CCOCC1	-1.16	-11.6%	i
CCCN=C(N)/C(C(=O)OCC)=C(\O)c1ccc(OC)cc1	0.96	-6.2%	i
COc1cccc(C(=O)NC2CC3CCCC(C2)N3CC(=O)Nc2ccccc2)c1 (stereo not given)	-0.49	13.9%	i
CCN(CC(=O)N1CCN(C)CC1)S(=O)(=O)c1ccc(Cl)cc1	0.06	9.9%	i
COC(=O)[C@@H](NC(=O)NC(C)CCc1ccccc1)C(C)C (stereo not given in full)	0.44	5.9%	i
CCOc1ccc(N2C(=O)CC(N)C2=O)cc1 (stereo not given)	-0.27	5.6%	i
CCOC(=O)N1CCN(C(=O)c2cc3cc(Br)ccc3oc2=O)CC1	1.27	4.1%	i
Cc1ccc(S(=O)(=O)N2CCCC2C(=O)NC2CCCCC2)cc1 (stereo not given)	0.68	-9.7%	i
Cc1cc(C)n(S(=O)(=O)c2cc(C)c(C)cc2C)n1	-0.41	-6.0%	i
Cc1ccccc1CNc1nc(N)n(-c2ccccc2)n1	0.7	0.2%	i
CCOC(=O)C1=C(C)N=C2SC(C)C(=O)N2C1/C=C/c1ccccc1OC (stereo not given)	-0.64	-0.1%	i
Nc1cc(Cl)ccc1N1CCOCC1	1.26	-5.6%	i
O=C1C2C3C=CC(C3)C2C(=O)N1c1cccc(-c2nc3ccccc3o2)c1 (stereo not given)	0.3	-14.0%	i
COC(=O)CCC(=O)Nc1cccc2c(NC(=O)CCC(=O)OC)cccc12	-1.57	3.2%	i

Part of the list above in order of SMILES length, high to low.
canonical_smiles	WNV protease inh	Hsc70 ATP site	MT1-MMP reporter
O=C1C2C3C=CC(C3)C2C(=O)N1c1cccc(-c2nc3ccccc3o2)c1 (stereo not given)	0.3	-14.0%	i
CCOC(=O)C1=C(C)N=C2SC(C)C(=O)N2C1/C=C/c1ccccc1OC (stereo not given)	-0.64	-0.1%	i
COC(=O)CCC(=O)Nc1cccc2c(NC(=O)CCC(=O)OC)cccc12	-1.57	3.2%	i
Cc1ccc(S(=O)(=O)N2CCCC2C(=O)NC2CCCCC2)cc1 (stereo not given)	0.68	-9.7%	i
Cc1cc(C)n(S(=O)(=O)c2cc(C)c(C)cc2C)n1	-0.41	-6.0%	i
CCOc1ccc(N2C(=O)CC(N)C2=O)cc1 (stereo not given)	-0.27	5.6%	i

(more compounds)
canonical_smiles	WNV protease inh	Hsc70 ATP site	MT1-MMP reporter
CC1=C(C#N)C(NC(=O)C2CCCCC2)(C(F)(F)F)C(=O)N1 (stereo not given)	/	-0.3%	i
CCc1c(C)c(C#N)c2nc3ccccc3n2c1NCc1ccco1	/	3.6%	i
CCNC(=O)C(C)Sc1ccc(Cl)cc1 (stereo not given)	0.09	6.9%	i
CCN1CCN(CCCNC(=O)c2csc3c2CCCCC3)CC1	-0.16	-4.0%	i
Cc1cccc(CCNC(=O)C2CCCN(S(=O)(=O)c3cccc4nsnc34)C2)c1 (stereo not given)	-0.17	-3.6%	i
COC(=O)Cc1[nH]nc2c1C(C1C=CCCC1)C(C#N)=C(N)O2 (stereo not given)	-1.1	-2.5%	i
CC(=O)NC1=NN(C(C)=O)C(C)(CS(=O)(=O)c2ccc3ccccc3c2)S1 (stereo not given)	/	5.6%	i
COC(=O)CCN(C(=O)c1cc(OC)c(OC)c(OC)c1)c1ccccn1	/	2.3%	i
Cc1n[nH]c(C)c1S(=O)(=O)N1CCCCCC1	0.06	-0.3%	i
Cc1nn(-c2ccccc2)c2c1C(=O)N(Cc1ccccc1)C(=O)C(C)(C)C2	/	3.6%	i
Cn1c(=O)c2c3c(sc2n2c(SCC(=O)c4ccccc4)nnc12)COC(C)(C)C3	-0.52	0.0%	i
CCC1CCCCN1C(=O)Cn1c(=O)oc2ccccc21 (stereo not given)	0.36	2.4%	i
Cc1cc(C)n2nc(CCc3nc4nc(C)cc(C)n4n3)nc2n1	-0.34	-5.6%	i
CCOC(=O)N1CCC(NC(=O)Cn2ncc3c4ccccc4n(C)c3c2=O)CC1	0.36	-9.4%	i
O=C(COC(=O)c1ccco1)Nc1ccc2c(c1)OCO2	2.3	1.5%	i
COc1ccc(N2C(=O)CCC2(C#N)c2ccc(OC)cc2)cc1 (stereo not given)	/	-0.5%	i
CC(=O)Nc1ccc(Oc2ncccn2)c(Cl)c1	/	1.8%	i
c1ccc(OCc2nn3c(Cn4cnc5ccccc54)nnc3s2)cc1	-0.77	2.4%	i
COc1ccc(C(c2nnnn2Cc2ccccc2)N2CCN(C(=O)c3ccco3)CC2)cc1 (stereo not given)	-0.18	3.2%	i
CCn1c(CNc2ccc(F)cc2)nnc1SCC(=O)OC1CCCCC1	-0.62	-0.7%	i
CCCCOc1cccc(C(=O)N(Cc2cccs2)C2CCS(=O)(=O)C2)c1 (stereo not given)	-0.32	-5.1%	i
CC(C)c1ccc(C(=O)N(c2ccccn2)C(C)c2ccco2)cc1 (stereo not given)	/	-1.7%	i
CCN(CC)CCCNC1CCS(=O)(=O)C1 (stereo not given)	0.33	-0.6%	i
NS(=O)(=O)c1ccc(Nc2nc(-c3ccc(O)cc3O)cs2)cc1	/	1.9%	i

Brought forward from above: four entries; new compounds follow.
canonical_smiles	WNV protease inh	Hsc70 ATP site	MT1-MMP reporter
CCCCOc1cccc(C(=O)N(Cc2cccs2)C2CCS(=O)(=O)C2)c1 (stereo not given)	-0.32	-5.1%	i
CC(C)c1ccc(C(=O)N(c2ccccn2)C(C)c2ccco2)cc1 (stereo not given)	/	-1.7%	i
CCN(CC)CCCNC1CCS(=O)(=O)C1 (stereo not given)	0.33	-0.6%	i
NS(=O)(=O)c1ccc(Nc2nc(-c3ccc(O)cc3O)cs2)cc1	/	1.9%	i
O=C(CSc1nnc(CNc2ccc(F)cc2)n1Cc1ccco1)NC1CC1	-0.68	-6.4%	i
COc1cc(NC(=O)c2cc3c(C)nc4ccccc4c3o2)cc(OC)c1OC	1.54	-1.0%	i
CCOc1ccc(N2C(=O)c3cccnc3C2Nc2ccc(F)cc2)cc1 (stereo not given)	-0.34	-8.4%	i
CCc1c(C(=O)Nc2cc(C)ccc2OC)[nH]c(C)c1C(C)=O	0.24	1.9%	i
CCOC(=O)CC1=C(C#N)C(c2cccnc2)C(C(=O)OCC)=C(N)O1 (stereo not given)	-0.28	6.0%	i
CCc1ccc(CN(C(=O)c2cc3ccccc3oc2=O)C2CCS(=O)(=O)C2)cc1 (stereo not given)	/	5.4%	i
COC(=O)c1ccc(CSc2nc3cc(Cl)ccc3o2)cc1	/	-31.1%	i
CCOC(=O)N1CCN(C(=O)Nc2ccccc2Cl)CC1	-0.57	-1.8%	i
CCCN(CCC)CCNC(=O)CS(=O)Cc1nc(-c2ccc(C)cc2)oc1C (stereo not given)	-1.4	-1.6%	i
Cc1cc(N2CCN(c3cccc(C)c3C)CC2)nc(-c2ccccc2)n1	/	-0.2%	i
CCCNC(=O)N1CCC(C(=O)c2cccc(F)c2)CC1	/	1.7%	i
CN(C)Cc1ccc(O)c(CCc2ccccc2)n1	-0.23	2.8%	i
COC(=O)c1c(NC(=O)CCc2ccc(C)o2)sc(C)c1C	0.15	-0.9%	i
CCOCC(=O)N1CCc2ccccc21	-0.51	-7.5%	i
CS(=O)(=O)N1CCC(C(=O)N2CCc3ccccc3C2)CC1	-0.65	-6.3%	i
COc1ccc(-n2c(COc3cccc(C)c3)nnc2SCC(=O)NCc2ccco2)cc1	-0.65	1.4%	i
CC1CC(=O)c2cnc(NCc3ccco3)nc2C1 (stereo not given)	-0.6	9.2%	i
O=C(NCCC1=CCCCC1)C1CCC(CNS(=O)(=O)c2ccccc2)CC1 (stereo not given)	/	4.3%	i
c1ccc2c(c1)CCN(CCCNc1nc3ccccc3n3cnnc13)C2	-2.31	-0.1%	i
Cc1ccc(C(=O)OCC(=O)Nc2ccc3c(c2)OCO3)cc1S(=O)(=O)N1CCOCC1	/	0.8%	i
O=C(Cn1nnc(-c2ccccc2NC(=O)c2cccs2)n1)Nc1ccccc1	-0.08	3.6%	i
COC(=O)C1=C(C)N(c2ccc(C(=O)OC)cc2)C(=O)C1	0.48	2.0%	i
CCn1c(SCC(=O)Nc2ccccc2N2CCCCC2)nc2c1c(=O)n(C)c(=O)n2C	-0.31	-3.6%	i
CCOC(=O)CN(C(=O)CSc1nnc(C)n1-c1ccccc1)c1ccccc1	-0.51	2.5%	i
CCOC(=O)c1c(Nc2ccccc2)sc(/C=C2\C=Nc3ccccc32)c1O	/	-104.7%	i
Cc1ccc(S(=O)(=O)NC2CCC(C(=O)O)CC2)cc1 (stereo not given)	/	6.8%	i
CCOC(=O)c1c(C)[nH]c(C)c1C(=O)CSc1nnc(-c2ccco2)n1Cc1ccccc1	0.83	4.7%	i
COc1ccc(CNC(=O)C2CCCN2S(=O)(=O)c2ccc(S(=O)(=O)N(C)C)cc2)cc1 (stereo not given)	1.01	-1.8%	i
Nc1n[nH]c2c1C1(CCCCC1)Cc1ccccc1-2	1.25	3.6%	i

Screens: PubChem, several laboratories
